Mtb growth = Mycobacterium tuberculosis H37Rv growth inhibition, cell based, confirmatory dose response (AID 1949). inhibition, % at 10 µg/mL; hits with a dose series show IC50 in µg/mL. hit rate 1.6% among 100,000. most inactive calls were filed without a number and no value below 0 was filed;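 active = confirmed in a dose series; inconclusive = about 50% or more but not retested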;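 note: bacteria grown 7 days with compound before Alamar blue readout; 0% = untreated bacteria and 100% = reference antibiotic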
Starred values were filed as active, the others as inactive; i = inactive; ? = inconclusive.

SMILES | Mtb growth
O=S(=O)(NCCC1=CCCCC1)c1ccc2ccccc2c1 | 0.5%
O=C(CSCc1ccccc1Cl)NNC(=O)Nc1ccc2c(c1)OCO2 | i
Cc1ccnc(SCCn2c(N(C)Cc3ccccc3)nc3c2c(=O)n(C)c(=O)n3C)n1 | i
CC(C)c1nnc(NC(=O)C(Cc2ccccc2)N2C(=O)c3ccccc3C2=O)s1 (stereo not drawn) | 0.5%
CC(C)c1ccc(C(=O)NCc2cccnc2)cc1 | i
O=C(CSCc1ccccc1)Nc1ccc(Oc2ccc3c(c2)C(=O)NC3=O)cc1 | i
CC(=O)Nc1cccc(NC(=O)CSCc2ccccc2)c1 | i
Cc1ccccc1NC(=S)NC(=O)c1ccco1 | i
CC1=C(C(=O)OC(C)C)C(c2cn(-c3ccccc3)nc2-c2cccc([N+](=O)[O-])c2)NC(=O)N1 (stereo not drawn) | i
CCn1c(SCC(=O)N2CCOCC2)nnc1-c1ccc(Cl)cc1 | i
Nc1ncnc(Nc2ccc(S(=O)(=O)Nc3ncccn3)cc2)c1[N+](=O)[O-] | i
COc1ccc(CCNC(=S)NC2CCCC2)cc1 | i
Cc1ccc(C(C)C)c(OCC(=O)Nc2ccc(OC(C)C)cc2)c1 | 5.0%
COc1ccc(CCNC(=O)CN(C)S(=O)(=O)c2ccc3ccccc3c2)cc1 | 1.7%
CCn1c(SCC(=O)Nc2ccc(C(=O)OC)cc2)nnc1-c1ccc(C)cc1 | i
CSc1ccccc1C(=O)NCCOc1ccccc1C | 1.9%
CCOC(=O)c1c(NC(=S)NC(=O)c2ccc3c(c2)OCO3)sc2c1CCC2 | i
O=C(CSc1nnc(-c2ccccc2Cl)n1C1CCCCC1)NCCc1ccccc1 | i
CCc1nc(C)cn1S(=O)(=O)c1ccc(Br)c(OC)c1 | i
Cc1ccc(NC(=S)N2CCN(C3CCCCC3)CC2)cc1 | 2.5%
COc1ccc2nc(SCC(=O)NC3CCCC3)[nH]c2c1 | i
Cc1ccc(C(=O)Nc2cccc(NC(=O)c3ccco3)c2)c(C)c1 | 6.3%
CC(C(=O)NCCN1CCCC1)(c1ccccc1)c1ccccc1 | i
Cc1nnc(NC(=O)c2cccc(NC(=O)C(C)C)c2)s1 | 2.3%
O=C(Cn1cnc2sc3c(c2c1=O)CCCC3)N1CCc2ccccc21 | i
(listing goes on)
SMILES | Mtb growth
O=C(Nc1nnc(SCc2cccc3ccccc23)s1)C1COc2ccccc2O1 (stereo not drawn) | i
CC(=O)c1cccc(NC(=O)N2CC(C)OC(C)C2)c1 (stereo not drawn) | i
CCOC(=O)c1sc(NC(=O)C(CC)Sc2nc3ccccc3o2)nc1C (stereo not drawn) | 1.0%
O=C(C1CC(c2ccccc2O)=NO1)N1CCC2(CC1)OCCO2 (stereo not drawn) | i
Nc1ccc2c(c1)ncn2CCc1ccccc1 | 3.2%
CCN(C(=O)c1ccnc(C(C)(C)C)c1)c1ccccc1 | i
Cn1cc(C(=O)NNC(=O)NC23CC4CC(CC(C4)C2)C3)c2ccccc21 | i
Cc1ccc2nc(-c3ccncc3)cc(C(=O)Nc3ccc4c(c3)OCCO4)c2c1 | i
NC(=O)c1ccccc1NC(=O)C1CCCO1 (stereo not drawn) | 0.1%
CCc1nc(SCC(=O)N2CCCc3ccccc32)n[nH]1 | i
CC(=O)Nc1ccc(NC(=O)CN(Cc2ccc(C)cc2)S(=O)(=O)c2ccc(C)cc2)cc1 | i
CCc1ccc(NC(=O)C23CCC(C)(C(=O)C2)C3(C)C)cc1 (stereo not drawn) | 1.2%
Cc1ccc2oc(-c3ccc(NC(=S)NC(=O)CSc4ccc(Cl)cc4)cc3)nc2c1 | 12.0%
COc1cccc2c(Nc3ccccc3O)cc(C)nc12 | i
CCCc1ccc(OCc2ccc(C(=O)OC)o2)c(OC)c1 | 2.5%
O=S(=O)(Nc1ccccc1Cl)c1ccc(Cl)s1 | i
O=C(CSc1nnc2ccccn12)Nc1cccc(-c2nc3ccccc3s2)c1 | 1.3%
COc1ccc(/C(N)=N/OC(=O)c2ccc(C)cc2C)cc1OC | 12.2%
Cc1cc(OC(=O)c2ccco2)c2c3c(c(=O)oc2c1)CCCC3 | 23.4µg/mL*
O=C(COc1cc2oc(=O)c3c(c2cc1Cl)CCC3)NCc1ccco1 | 2.6%
COCCSc1ccccc1C(=O)Nc1ccc(S(=O)(=O)N2CCOCC2)cc1 | i
O=C(NCCc1ccc(F)cc1)c1ccc(Br)o1 | 1.7%
CC1CN(CCOc2cccc3ccccc23)CC(C)O1 (stereo not drawn) | i
COc1ccc(-n2c(SCC(=O)NCc3ccccc3)nc3sc(C)c(C)c3c2=O)cc1 | i
O=C(CSc1nc2sc3c(c2c(=O)[nH]1)CCC3)Nc1ccccc1C(F)(F)F | i
Continued.
SMILES | Mtb growth
N#Cc1ccc(NC(=S)NCCN2CCOCC2)cc1 | i
Cc1cc(C)cc(NC(=O)c2ccc(COc3ccccc3Br)o2)c1 | 1.3%
O=C(Nc1cc(C(F)(F)F)ccc1N1CCCCC1)c1cccnc1 | i
CC1CC(C(F)F)n2nc(C(=O)O)nc2N1 (stereo not drawn) | 2.4%
COC(=O)c1c(NC(=O)C(=O)NCC2CCCO2)sc2c1CCC2 (stereo not drawn) | i
CCc1cccc(C)c1NC(=O)CSc1nnc(-c2ccc(N)cc2)n1CC | 30.8%
C=CCOc1ccc(CNCCCN2CCOCC2)cc1OCC | i
Oc1ccccc1C(=S)N1CCN(C(=S)c2ccccc2O)CC1 | i
CCOc1ccccc1OCC(=O)Nc1ccc([N+](=O)[O-])cc1C | i
CCOC(=O)CN1NC2(CCC(C(C)(C)C)CC2)NC1=S (stereo not drawn) | 13.1%
CC(=O)Nc1ccc(S(=O)(=O)N2CCN(c3cc4c(cc3[N+](=O)[O-])n(C)c(=O)n4C)CC2)cc1 | i
O=c1c(Br)c(N2CCCC2)cnn1-c1ccccc1 | i
O=C(COc1ccc(F)cc1)n1nnc2ccccc21 | 5.7%
COC(=O)C1=CN(Cc2ccccc2)C=C(C(=O)OC)C1c1ccc(Br)cc1 | i
Cc1cc(C)c2c(=O)[nH]c(SCC(=O)c3ccccc3)nc2n1 | i
Cc1ccc(NS(=O)(=O)c2ccc(NC(=S)NC(=O)c3sc4ccccc4c3Cl)cc2)c(C)c1 | i
COc1cc(N2Cc3ccccc3C2)ccc1C=O | i
O=C(Nc1cccc(NC(=O)c2ccccc2-c2ccccc2C(=O)O)c1)c1nccs1 | i
O=C(Cc1ccccc1)Nc1ccc2c(c1)C(=O)N(C1CCCCC1)C2=O | i
COC(=O)c1ccc(NC(=S)NCc2cccc(OC)c2)cc1 | 32.2%
CC(C)c1ccc(OCc2nnc(SCC(=O)Nc3ccc(Br)cc3C(C)C)o2)cc1 | i
COc1ccc(C(=O)NC2c3ccccc3-c3ccccc32)cc1OC | 0.3%
CCOc1ccc(S(=O)(=O)NC2CCCCC2)cc1 | i
CC(NS(=O)(=O)c1ccc(Br)cc1)C(=O)Nc1ccc(Cl)cc1Cl (stereo not drawn) | i
CCC(=O)NC(=S)Nc1ccc(NC(=S)NC(=O)COc2ccccc2)cc1 | 14.7%
Additional results follow.
SMILES | Mtb growth
COc1ccc2oc(=O)c(C(=O)N3CCC(C(N)=O)CC3)cc2c1 | i
COc1ccc(C(=O)Nc2ccc(NC(=O)c3ccccc3)cc2)cc1S(=O)(=O)N1CCOCC1 | i
O=C(Nc1cc(Cl)ccc1N1CCOCC1)c1cc2ccccc2o1 | i
CCN1CCN(c2ccc(NC(=O)C(Cl)(Cl)Cl)cc2)CC1 | i
CN(C)Cc1nc2c(c(=O)[nH]1)C(C)(C)Cc1ccccc1-2 | ?
O=C(Nc1cc(C(F)(F)F)ccc1N1CCOCC1)c1c(F)c(F)c(F)c(F)c1F | i
O=C(CSc1nnc2scc(-c3ccc(Cl)cc3)n12)NCc1ccco1 | i
COC(=O)c1cc(-c2ccccc2)sc1NC(=O)c1ccoc1C | i
CC(C)Cc1nnc(NS(=O)(=O)Cc2ccccc2)s1 | 4.6%
C=CCn1c(SCC(=O)Nc2ccccc2[N+](=O)[O-])nc2sc(C)cc2c1=O | i
CCCCOc1ccc(NC(=O)COc2ccc(Cl)cc2C)cc1 | i
O=C1c2ccccc2NC(c2ccc(O)cc2)N1Cc1ccco1 (stereo not drawn) | i
Cn1c(SCC(=O)Nc2ccc(I)cc2)nnc1-c1ccccc1 | i
C=CCNc1ncnc2sc(C)c(C)c12 | i
CC(=O)Nc1ccc(C2C3=C(CCCC3=O)OC3CCCC(=O)C32)cc1 (stereo not drawn) | i
COC(=O)C(C(=O)Nc1ccccc1C)C1CCCC1 (stereo not drawn) | 0.3%
CC(=O)Nc1ccc(-c2nnc(SCC(=O)NCc3ccco3)n2C)cc1 | 2.6%
COc1ccc(S(=O)(=O)N2CCC(C(N)=O)CC2)cc1Br | i
COc1ccc(S(=O)(=O)NCc2ccccc2)cc1I | i
CSc1nnnn1-c1ccc(C(=O)OCc2ccccc2F)cc1 | 6.0%
CCOC(=O)N1CCN(C(=S)NC2CCCC2)CC1 | i
CN1CCN(S(=O)(=O)c2cc(Cl)c(Cl)cc2Cl)CC1 | i
COc1ccc(N2CCN(C(=O)CN(C)S(=O)(=O)c3cc(Cl)ccc3Cl)CC2)cc1 | i
O=C(Cc1ccc(F)cc1)Nc1ccc(Oc2ccccc2)cc1 | i
N=C1C(c2nc3ccccc3s2)=C(O)CN1c1ccc(Cl)cc1Cl | 2.5%

Grouped by structure: the compounds so far with a Cl atom.
SMILES | Mtb growth
O=C(CSCc1ccccc1Cl)NNC(=O)Nc1ccc2c(c1)OCO2 | i
CCn1c(SCC(=O)N2CCOCC2)nnc1-c1ccc(Cl)cc1 | i
O=C(CSc1nnc(-c2ccccc2Cl)n1C1CCCCC1)NCCc1ccccc1 | i
Cc1ccc2oc(-c3ccc(NC(=S)NC(=O)CSc4ccc(Cl)cc4)cc3)nc2c1 | 12.0%
O=S(=O)(Nc1ccccc1Cl)c1ccc(Cl)s1 | i
O=C(COc1cc2oc(=O)c3c(c2cc1Cl)CCC3)NCc1ccco1 | 2.6%
Cc1ccc(NS(=O)(=O)c2ccc(NC(=S)NC(=O)c3sc4ccccc4c3Cl)cc2)c(C)c1 | i
CC(NS(=O)(=O)c1ccc(Br)cc1)C(=O)Nc1ccc(Cl)cc1Cl (stereo not drawn) | i
O=C(Nc1cc(Cl)ccc1N1CCOCC1)c1cc2ccccc2o1 | i
CCN1CCN(c2ccc(NC(=O)C(Cl)(Cl)Cl)cc2)CC1 | i
O=C(CSc1nnc2scc(-c3ccc(Cl)cc3)n12)NCc1ccco1 | i
CCCCOc1ccc(NC(=O)COc2ccc(Cl)cc2C)cc1 | i
CN1CCN(S(=O)(=O)c2cc(Cl)c(Cl)cc2Cl)CC1 | i
COc1ccc(N2CCN(C(=O)CN(C)S(=O)(=O)c3cc(Cl)ccc3Cl)CC2)cc1 | i
N=C1C(c2nc3ccccc3s2)=C(O)CN1c1ccc(Cl)cc1Cl | 2.5%

Other records follow:
SMILES | Mtb growth
COc1ccc(I)cc1S(=O)(=O)N1CC(C)OC(C)C1 (stereo not drawn) | i
Cc1ccc(S(=O)(=O)N(C(=O)c2ccncc2)c2ccc(OC(=O)c3ccncc3)cc2)c(C)c1 | i
COc1ccc(NC(=O)C2(C)CC3c4ccccc4C2c2ccccc23)c(OC)c1 (stereo not drawn) | i
CCOC(=O)Nc1ccc2c(c1)N(C(=O)CCN(C)C)c1ccccc1CC2 | i
CC1=CC(C)C(CNCc2ccco2)C(C)C1 (stereo not drawn) | 0.6%
O=C(NS(=O)(=O)c1ccc(NC(=S)Nc2ccc(Br)cc2Cl)cc1)c1ccccc1 | 0.7%
CCc1ccc2nc(N3C(=O)C(O)=C(C(=O)c4ccco4)C3c3ccc(OC)cc3)sc2c1 (stereo not drawn) | 34.7%
O=C(CN(c1ccccc1)S(=O)(=O)c1ccccc1)Nc1ccccc1C(=O)NCc1ccco1 | i
COc1ccccc1OCC(=O)Nc1nc(-c2ccc(Cl)cc2)cs1 | i
Cc1ccc(-n2c(C)nnc2SCC(=O)Nc2cc(C(F)(F)F)ccc2Cl)cc1 | i
CC(Oc1ccccc1F)C(=O)Nc1nc2ccc(S(C)(=O)=O)cc2s1 (stereo not drawn) | i
COc1ccc(C2CC(=O)C3=C(C2)NC(C)=C(C(=O)Nc2cccc(C)n2)C3c2ccccn2)cc1 (stereo not drawn) | i
CCc1ccccc1NC(=O)CN(c1ccc(Cl)cc1C)S(C)(=O)=O | i
COc1ccccc1NC(=O)N1CCN(c2cccc(C(F)(F)F)c2)CC1 | i
Fc1ccc(-c2csc(NCc3ccco3)n2)cc1 | 7.2%
CC1=CC(C)(C)Nc2ccc(OC(=O)C(Cc3ccccc3)N3C(=O)C4CCCCC4C3=O)cc21 (stereo not drawn) | i
CN(CC(=O)Nc1ccc(C(F)(F)F)cc1)S(=O)(=O)c1ccc(Cl)cc1 | i
CN1CCN(c2ccc(NC(=O)c3cc(Br)ccc3Cl)cc2)CC1 | 1.2%
CC(=O)Nc1ccc(NC(=O)c2ccc(CN(c3ccc(C)c(C)c3)S(C)(=O)=O)cc2)cc1 | 7.2%
CCCOc1cccc(C(=O)Nc2cccc(Cl)c2Cl)c1 | 0.1%
O=C(Nc1ccc(N2CCN(c3c(F)c(F)c(F)c(F)c3F)CC2)cc1)c1ccccc1[N+](=O)[O-] | i
COC(=O)C1=C(C)n2cnnc2NC1c1ccc(-c2ccc(Cl)c(C)c2)o1 (stereo not drawn) | 44.6%
CC(=O)N(CCN(C(C)=O)c1ccccc1)c1ccccc1 | i
CCSc1nnc(-c2ccc(C)c(S(=O)(=O)NCc3cccnc3)c2)c2ccccc12 | 10.5%
Cc1ccc(-c2nn(-c3cc(N4CCN(C)CC4)ccc3[N+](=O)[O-])c(=O)c3ccccc23)cc1 | 8.15µg/mL*
Next records:
SMILES | Mtb growth
O=[N+]([O-])c1cccc(-c2nnc(SCc3ccccc3F)n2Cc2ccccc2)c1 | i
CC(C(=O)Oc1ccc(F)cc1)N1C(=O)c2ccccc2C1=O (stereo not drawn) | 13.9%
O=C(NC(=S)Nc1ccc(O)c(C(=O)O)c1)c1ccccc1 | i
Cc1ccc2c(c1)C(c1ccccc1)CC(C)N2C(=O)c1ccco1 (stereo not drawn) | 8.4%
CCCCOc1ccc(CNC(C)(C)CO)cc1OC | i
O=C(Cc1c(F)cccc1Cl)N1CCCc2ccccc21 | 2.3%

Bioassay records from PubChem.

An excerpt; the hit share may differ from the screen's.
